# High-throughput results as filed in PubChem BioAssay.
# TRPV1 PAM – HTS Assay for Compounds that Act as Potentiators of the Vanilloid Receptor 1; Transient receptor potential cation channel subfamily V member 1 (Homo sapiens), Q8NER1; TRPV1-expressing cells, Fluo-8 calcium influx, capsaicin EC20 potentiation; host cell line not named in the record; control for the full effect not named in the record; potentiation, % at 8.33 µM; actives 0.02% (n = 320,000); AID 540277, 2011; active means potentiation above 80%; inconclusive means 30% to 80%; inactive means below 30%; further: 0% is about no effect
#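 TRPV1-expressing cells were cultured overnight at 35.5C and loaded with Fluo-8 calcium dye for 40 to 90 min at room temperature. After a 10 s baseline, compound was added and calcium influx was read kinetically for 3 min (ex 480/em 520 nm).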
# ClpP mod – qHTS Assay for Activators of ClpP | ATP-dependent Clp protease proteolytic subunit (Bacillus subtilis (strain 168)), P80244 | purified B. subtilis ClpP, FRET peptide cleavage, 20 min | Potency, µM (series often up to 57.5 µM), inactives show top-dose activity change, negative = active | actives 1.9% (n = 340,000) | AID 651965, 2013; active = well fitted falling curve with a large enough effect; inconclusive = small, poorly fitted or top-dose-only effect; inactive = no such curve, though single readings can be large or run the other way; further: potency means the concentration at half of the fitted maximal effect; the source files actives as falling curves though it sought activators and does not explain the sign; nearly all actives have a fitted effect of over 65% in size; many hits overshoot -100%
# Target sequence (P80244 whole entry, looked up): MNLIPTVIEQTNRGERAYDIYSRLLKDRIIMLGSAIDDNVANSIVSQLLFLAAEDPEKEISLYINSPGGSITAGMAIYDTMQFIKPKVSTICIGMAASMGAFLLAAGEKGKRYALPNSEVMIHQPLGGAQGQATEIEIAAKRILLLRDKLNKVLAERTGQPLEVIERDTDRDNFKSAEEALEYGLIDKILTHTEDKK
#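 ClpP 10 microg/mL final, pH 8 Tris/KCl buffer with BSA, glycerol, Tween-20; compound pinned in; FRET-FV substrate; RT 20 min; Ex320/Em430; ΔFRET vs ADEP 5.8 microM, DMSO, no enzyme.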
# TRPML1 inh – qHTS for Inhibitors of the Human Mucolipin Transient Receptor Potential 1 (TRPML1); Mucolipin-1 (Homo sapiens), Q9GZU1; TRPML1-inducible cells, Ca2+ dye fluorescence, FDSS; stronger effect = lower value; inhibition of EC80 agonist-evoked calcium signal; activity change, negative = inhibition, % (concentration not given with the values); actives 0.02% (n = 390,000); AID 624415, 2012; in the data active means activity change below about -50%; inconclusive means about -30% to -50%; inactive means above about -30%;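 further: stimulus is agonist 54-4 at its EC80 concentration; on the % scale 0 is the no-effect control and ±100 the full control effect; compound concentration not given in the record; the text of the record puts the active cut at -80%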
# Target sequence (Q9GZU1 whole entry, looked up): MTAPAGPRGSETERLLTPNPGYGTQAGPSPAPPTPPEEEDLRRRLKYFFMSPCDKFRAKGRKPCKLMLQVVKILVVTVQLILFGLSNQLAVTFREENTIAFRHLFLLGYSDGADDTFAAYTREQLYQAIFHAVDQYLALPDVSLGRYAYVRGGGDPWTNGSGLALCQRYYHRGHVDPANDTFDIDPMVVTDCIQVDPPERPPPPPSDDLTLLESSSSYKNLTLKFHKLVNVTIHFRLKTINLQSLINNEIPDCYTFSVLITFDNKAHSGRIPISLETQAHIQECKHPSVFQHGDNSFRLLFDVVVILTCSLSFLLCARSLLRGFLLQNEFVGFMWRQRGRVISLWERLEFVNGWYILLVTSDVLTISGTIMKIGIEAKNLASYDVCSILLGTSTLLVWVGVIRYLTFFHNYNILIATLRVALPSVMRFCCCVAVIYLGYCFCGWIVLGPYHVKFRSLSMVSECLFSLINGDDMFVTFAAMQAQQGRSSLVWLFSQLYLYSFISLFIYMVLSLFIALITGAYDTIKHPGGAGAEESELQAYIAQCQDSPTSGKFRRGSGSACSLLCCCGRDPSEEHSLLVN
#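 Tet-induced TRPML1-DL cells loaded with Ca8 no-wash calcium dye were read kinetically on FDSS. Compound addition was followed by EC80 agonist 54-4 (4 uM final); inhibition was read over 110 s.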
# TRPML1 agonist – qHTS for Agonists of the Human Mucolipin Transient Receptor Potential 1 (TRPML1) | Mucolipin-1 (Homo sapiens), Q9GZU1 | TRPML1-expressing cells, Ca2+ dye fluorescence, FDSS; host cell line not named in the record; reference of the full effect not given here | activation, % (test concentration not listed) | AID 624414, 2012 | actives 0.12% (n = 410,000); in the data active = activation above about 50%; inconclusive = about 30% to 50%; inactive = below about 30%; further: 0% is about no effect; the text of the record puts the active cut at 80%
#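 TRPML1-DL cells, Tet-induced overnight (~16 h, 37 degrees C), loaded 45-90 min at room temperature with Ca8 no-wash calcium dye plus quencher. FDSS fluorescence: 10 s baseline, compound pin-transfer, 110 s agonist read, then EC80 54-4 (4uM final) and 110 s antagonist read.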
# PINK1 modulator – A Quantitative High throughput Screen to Identify Chemical Modulators of PINK1 Expression | actives 0.2% (n = 410,000) | PINK1 immunofluorescence, high-content cytometry, 24 h | Potency, µM (series often up to 76.6 µM), for inactives: at the top dose activation (PINK1 increase), actives largely listed as activators; active = well fitted activation curve with a large enough effect; inconclusive = small, poorly fitted or top-dose-only effect; inactive = flat fitted curve, though single readings scatter; cell line not stated here;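 further: potency means the concentration at half of the fitted maximal effect; % of control where 0% means no effect; nearly all actives have a fitted effect of over 65% in size; a mitochondrial uncoupler was the plate control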
#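 Stable cell line treated 24 h with compounds at 5 concentrations (CCCP controls), then fixed and immunostained for PINK1 plus nuclear and cell stains; PINK1 immunofluorescence quantified by laser-scanning microplate cytometry.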
# Menin MLL FP FL – qHTS Assay for Inhibitors Targeting the Menin-MLL Interaction in MLL Related Leukemias: Competition With Fluorescein Labeled MLL-derived Peptide. FP activity change, % at 61.4 µM. Fluorescence polarization, fluorescein-MLL peptide displacement from menin. 290,000 tested, under 10 active; inconclusive = falling polarisation curve, or a change in total fluorescence; inactive = total fluorescence flat and polarisation flat or rising; no compound was filed as active; the % refers to the polarisation; negative = inhibition;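 further: % of control where 0% means no effect; inhibitors lower the polarisation; unlabelled MLL peptide was the positive control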
# Sfp PPTase inh – qHTS Assay for Inhibitors of Bacillus subtilis Sfp phosphopantetheinyl transferase (PPTase); AID 1490, 2009; Biochemical Sfp PPTase activity, qHTS; 4'-phosphopantetheinyl transferase ffp (Bacillus subtilis), Q9F4F7; Potency, µM, without a hit: max response, negative = inhibition, usual class: inhibitors; actives 3.5% (n = 310,000); active means well fitted inhibition curve with a large enough effect; inconclusive means small, poorly fitted or top-dose-only effect, or another doubt; inactive means no such curve, though single readings can be large or run the other way;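 further: the enzyme is Sfp with the accession as filed and its product quenches rhodamine fluorescence; potency means the concentration at half of the fitted maximal effect; 0% = enzyme reaction without inhibitor and -100% = no enzyme wells; top concentration of the series not given in the record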
#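 Fluorescence-quenching assay: 15 nM Sfp-PPTase preincubated 15 min at room temperature with compound, then 5 uM rhodamine-CoA and 12.5 uM BHQ-2-labelled YbbR peptide added. Fluorescence (ex 525/em 598 nm) read at start and after 30 min; difference gives rate.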
# Active calls of the source: *; ? = inconclusive; nt = not tested or not shown; & = joins results of further samples; [ ] = another dose, or the depositor's remark.
# Screens in order – TRPV1 PAM	ClpP mod	TRPML1 inh	TRPML1 agonist	PINK1 modulator	Menin MLL FP FL	Sfp PPTase inh
COc1ccc(CNC(=O)CCCn2nc(C)c3c(C)n(-c4ccc(C)cc4)nc3c2=O)cc1
    -1	0.8%	4	1.7	2.0%	-4.3	-9%
COc1ccc(CNc2nc(NCc3ccc(OC)cc3)n(C(C)=O)n2)cc1
    2	-2.2%	34	2.8	-14%[38.3 µM]	0.8	12%
CN(C)c1ccc(N2C(=O)CSC2=S)cc1
    -3	1.0%	-11	2.7	1.1%	?	-35%
Cc1ccc2oc(C(=O)N(C)Cc3ccon3)c(C)c2c1
    -18	-3.4%	1	-0.3	2.3%	nt	4%
CCCOc1ccc(C2C3=C(Nc4nc(N)[nH]c(=O)c42)c2ccccc2C3=O)cc1 (centres undefined)
    2	-1.3%	25	0.2	1.0%	-1.5	-9%
CCn1c(C)c(C)c2cc(C(=O)NCc3ccc(OC(C)C)cc3)ccc21
    nt	-19%	23	3.4	0.6%	nt	nt
CCN1CCN(C(c2ccc(OC)cc2)c2c(O)cc(C)n(CCOC)c2=O)CC1 (centres undefined)
    nt	-2.4%	-12	0.3	1.2%	nt	nt
COCCCNC(=S)N(Cc1ccccc1)Cc1ccccc1
    -4	-0.8%	-7	1.4	1.0%	5.8	2%
Cc1ccc([N+](=O)[O-])cc1NC(=O)CN(C(=O)c1ccc(Cl)cc1)C1CCCCC1
    5	0.5%	31	2.0	0.0%	6.9	13%
CCOP(=O)(OCC)/C(C#N)=C/c1ccc(-c2ccc(F)cc2F)o1
    -11	-5.4%	2	2.3	1.6%	6.6	-25%
CCN(CC)C(=O)Oc1ccc(Cl)c2cccnc12
    2	nt	-4	1.4	0.3%	0.2	19%
CCN(CC)c1ccc(/C=N/Nc2nc3ccccc3[nH]2)c(O)c1
    -1	?	4	2.4	?	2.4	-27%
COc1c(Cl)cc(Cl)cc1/C=C(\C#N)c1nc(-c2ccc(Cl)cc2)cs1
    nt	-5.1%	-23	0.6	1.2%	nt	nt
O=C(CSc1ccccc1F)NCC(c1cccs1)N1CCOCC1 (centres undefined)
    nt	-0.9%	17	-0.1	-1.2%	nt	nt
N#Cc1cnn(Cc2ccccc2)c1/N=C/N1CCOCC1
    -15	-5.7%	6	-0.4	0.9%	0.3	2%
Cn1nc(-c2ccncc2)nc2c(=O)n(C)c(=O)nc1-2
    nt	1.7%	nt	-0.2	-0.1%	nt	nt
Cn1c(N)c(C(=O)c2ccc(Cl)cc2)c(=O)n(C)c1=O
    6	0.3%	-23	0.5	-0.1%	3.7	18%
COc1ccc(CNC(=O)C2=CCN(S(=O)(=O)c3ccc(C)cc3)CC2)cc1
    ?	nt	8	-0.6	5.9%	5.1	?
COc1ccc(NC(=O)/C(Cl)=C(/Cl)S(=O)Cc2ccccc2)cn1 (centres undefined)
    12	0.6%	13	0.7	-6.1%	0.0	40µM*
Cc1cc(C)c(S(=O)(=O)N(C)CC(=O)NCc2ccccn2)c(C)c1
    8	nt	49	1.8	-1.3%	0.5	-15%
CC(C)NC(=O)C(=O)c1cn(C)c2ccccc12
    -16	-4.1%	-9	-0.3	1.3%	-2.4	13%
CCOC(=O)c1c(S(=O)(=O)N2CCCC(C(=O)Nc3cccc(C)n3)C2)c(C)n(C)c1C (centres undefined)
    -3	0.7%&0.2%	3&-3	-0.3&-1.4	0.7%&1.4%	nt	20%
c1ccc(-c2cc(-c3nc(-c4cccnc4)no3)c3ccccc3n2)cc1
    -15	nt	nt	nt	nt	2.3	4%
Cc1ccc(C(=O)NCC(=O)NCC(=O)OCc2ccc(F)cc2)cc1
    2	nt	10	1.7	-0.2%	3.9	4%
COc1cccc(C(=O)c2cc3ccc(O)cc3oc2=O)c1
    -2	-2.5%	-3	2.1	-3.4%[38.3 µM]	17	0%
Cc1nnc(NC(=O)CCn2c(=O)oc3ccc(Cl)cc32)s1
    4	2.8%	6	0.1	1.0%	-0.8	-6%
Cc1cc(C)cc(C(=O)N2CCC(C(N)=O)CC2)c1
    -6	2.1%	18	-0.1	1.9%	-0.3	?
CCOc1ccccc1N(C)C(=O)c1nn(-c2ccc(C)cc2)c(=O)c2c1c1ccccc1n2C
    nt	0.7%	23	2.1	1.0%	nt	nt
COc1ccc(CCC(=O)Nc2cccc(Cl)c2)cc1
    27	-15%	61	0.8	-0.2%	nt	6%
O=C(CN1CCC(NC(=O)C2CCCCC2)CC1)NCc1ccco1
    -16	-1.4%	7	4.2	1.5%	2.0	6%
CCN(CC)CCN(C(=O)c1ccco1)c1nc2c(C)c(C)ccc2s1
    nt	-5.5%	58	2.2	9.4%	nt	nt
COc1ccccc1CN1CC(C(=O)NCc2cccc(Cl)c2)CCC1=O (centres undefined)
    -2	-0.8%	-3	-0.5	3.8%	nt	3%
CC1(C)CC(c2nc(-c3ccccc3)cs2)CCS1 (centres undefined)
    -2	nt	7	-0.3	?	3.4	6%
COc1ccc2c(c1)c1nc3ccccc3nc1n2CCn1c(=O)oc2ccccc21
    3	1.8%	-22	0.0	4µM*	-2.7	8%
Clc1ccc(/C=N/Nc2ncnc3ccccc23)cc1Cl
    -13	28µM*	3	0.1	3.6%	2.0	-25%
COc1cccc(-n2cc(C(=O)O)c3ccccc3c2=O)c1
    4	-9.5%	-13	0.0	2.7%[38.3 µM]	-1.5	?
COCCn1c(SCC(=O)c2ccc3c(c2)OCCO3)nnc1C(C)C
    -25	-0.9%	5	1.1	0.9%	3.8	?
Cc1ccc(S(=O)(=O)NNC(=S)NCC2CCCO2)cc1 (centres undefined)
    2	nt	-1	0.6	-0.5%	3.3	-15%
CCOc1ccc(/C=N/NC(=O)c2ccc(F)cc2)cc1CN1CC2CC(C1)c1cccc(=O)n1C2 (centres undefined)
    -13	-7.5%	53	0.2	2.5%	nt	nt
COc1cccc(CNc2ccc3[nH]c(=O)[nH]c3c2)c1OCc1ccccc1F
    -7	12%	nt	nt	0.8%	-8.2	-13%
CCc1cccc(CC)c1NC(=O)COc1ccccc1C(=O)c1cc(C#N)c(=O)n(C2CCCCC2)c1
    -1	-25%	-4	0.2	0.2%	1.4	11%
O=C(N/N=C/c1ccc2ncccc2c1)c1cccc([N+](=O)[O-])c1
    -6	nt	12	-0.4	-0.9%	-0.5	17%
CC(=O)Nc1cc(C(N)=O)c(Cl)cc1Cl
    1	-0.6%	12	-0.6	2.0%	2.5	-12%
CC(C)(C)c1ccc(NC(=O)c2ccccc2)c([N+](=O)[O-])c1
    -18	nt	3	0.2	6.1%	-1.3	-15%
CCCCCC(=O)N1C[C@@H](O)[C@H](n2cc(COC(=O)c3ccccc3)nn2)C[C@@H]1c1ccccc1
    nt	-0.3%	-7	-0.4	1.8%	nt	nt
COc1cccc(C(=O)Nc2ccc3nc(SCc4ccc(C)cc4)sc3c2)c1
    nt	?	15	0.0	6.5%	nt	nt
O=c1oc2cc([N+](=O)[O-])ccc2nc1/C=C(\O)c1cccc(Br)c1
    2	0.9%	14	0.0	1.0%	5.1	5%
Cc1ccc(NS(=O)(=O)c2cc3c4c(cccc4c2)C(=O)NC3=O)cc1
    5	nt	-8	1.7	11%	-2.3	25%
CC(C)c1ccc(OC(=O)c2cc(-c3ccc(Cl)cc3)on2)cc1
    nt	-2.8%	-12	-0.5	1.8%	nt	nt
CC(=O)Nc1ccc(-c2ccccc2)s1
    4	-0.7%	6	0.8	0.4%	-3.8	?
CS(=O)(=O)c1ccc(C(=O)NCC(c2ccco2)N2CCCCC2)cc1 (centres undefined)
    7	1.5%	2	0.0	0.0%	1.3	12%
CCOC(=O)C1(CCOc2ccccc2)CCN(Cc2cc(OC)ccc2OC)CC1
    -5	-0.7%	nt	nt	?	1.1	9%
O=C1C2ON(c3ccccc3)C(c3ccncc3)C2C(=O)N1c1ccccc1 (centres undefined)
    -5	0.8%	-11	-0.8	-0.8%	7.1	10%
O=C(Nc1ccc2c(c1)OCCO2)C(=O)NC1CC1
    ?	nt	-5	0.2	3.0%	3.9	8%
CC1CCCN(C(=O)CNC(=O)c2ccco2)C1 (centres undefined)
    1	-0.9%	5	0.4	-0.6%	nt	18%
CCc1nc2ccccc2c(C(=O)OCC(=O)NCc2ccco2)c1C
    9	-1.9%	-10	-0.9	-1.7%	1.8	-14%
O=C(Nc1ccccc1)Nc1nnc([C@H]2C[C@H](O)[C@@H](CO)O2)s1
    nt	-5.3%	nt	0.0	1.3%	nt	nt
CCS(=O)(=O)N1CCCC(C(=O)NC2CCC(C)CC2)C1 (centres undefined)
    23	0.0%	29	1.3	1.8%	-1.8	6%
Cc1ccccc1C([O-])=Nc1ccc[n+](-c2nc3ccccc3nc2NS(=O)(=O)c2ccccc2)c1
    30	nt	23	1.0	1.6%	-6.3	1%
CCOC(=O)Nc1ccc2c(c1)N(C(=O)CCN1CCN3CCCC3C1)c1ccccc1CC2 (centres undefined)
    -11	-1.3%	21	0.2	0.4%[38.3 µM]	33[activator]	-10%
NC(=O)c1cc(S(=O)(=O)NCc2ccccc2)cs1
    7	0.6%&0.1%	-5&0	-0.1&-0.3	4.1%&1.7%	-5.6	6%
O=C(Nc1ccccc1Cl)Oc1ccc(-c2ccccc2)cc1
    19	-5.3%	12	1.4	-0.3%	6.6	7%
CC12CC(c3ccccc3O1)N(C(=O)c1ccc(Br)o1)C(=O)N2c1ccccc1 (centres undefined)
    -12	2.9%	9	0.9	-0.9%	6.0	15%
